Hedgehog inh: Sonic Hedgehog pathway inhibition | 2.1% of 22,000 active | Shh-LIGHT2 Gli-luciferase reporter, 30 h | inhibition, % (test concentration not listed);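 active = replicate mean of 65% or more; inconclusive = mean lower but half the replicates past it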;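 also: pathway switched on by Shh-conditioned medium diluted 1 in 25 in low serum; 100 nL library stock added to about 40 µL; 0% = median of neutral wells and 100% = positive control level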
PD-1 reversal: reversal of PD-1 mediated T-cell inhibition; AID 2316; 29,000 tested, under 10 active; primary human CD4 T cells, PD-L1 beads, CellTiter-Glo 96 h; activation, % (no concentration beside the values);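 active = replicate mean of 50% or more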;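 also: 0% = median vehicle wells and 100% = positive control; 100 nL library stock added to about 50 µL; numbers are from one replicate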
YB-1 expr inh: YB-1 expression inhibition. delta delta Cp (YB-1 minus CDIP) (test concentration not listed). U2OS, qRT-PCR YB-1 vs CDIP delta delta Cp, 16 h; active compounds read high; zero = DMSO, each unit about twofold. AID 434959. 0.37% of 30,000 active;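 active = delta delta Cp rounded down to an integer at or above 3, about 3 SD of DMSO wells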;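 also: higher means less YB-1 transcript or more CDIP transcript relative to DMSO; stock transfer was 100 nL into about 100 µL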
MITF inh: blocks MITF activity | TRPM1 promoter luciferase, luminescence, 24 h | inhibition, % (concentration not given with the values) | 0.28% of 37,000 active;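 active = most replicates at 85% or more, or half of them and the mean; inconclusive = half reach 85% but not the mean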;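 also: human melanocyte line stably carrying TRPM1 promoter luciferase reporter; 0% = vehicle wells and 100% = a positive control; the first replicate is given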
The depositor's hits bear a star; u = inconclusive; x = no result given.

SMILES	Hedgehog inh	PD-1 reversal	YB-1 expr inh	MITF inh
C[C@@H]1CN([C@H](C)CO)C(=O)Cc2cc(NC(=O)Cc3ccccc3)ccc2O[C@@H]1CN(C)Cc1ccccc1	u	1.2	0.035	-10
COc1ccc(S(=O)(=O)Nc2ccc3c(c2)C(=O)N([C@@H](C)CO)C[C@@H](C)[C@H](CN(C)CC2CC2)O3)cc1	-4	2.2	-0.15	1
CCn1c(SCC(=O)Nc2ccccc2C(F)(F)F)nnc1-c1cccc(C)c1	x	-0.2	x	-9
C[C@@H]1CN([C@@H](C)CO)C(=O)c2cc(NC(=O)Nc3ccc(F)cc3)ccc2O[C@@H]1CN(C)Cc1ccc(C(=O)O)cc1	x	-3.2	0.13	-20
CS(=O)(=O)NC(C(=O)O)c1ccccc1 (stereo unspecified)	x	1.7	x	-13
Cc1cc(=O)c2c(O)c3c(O)cc(O)c4c5c(O)cc(O)c6c(O)c7c(=O)cc(C)c8c1c2c(c34)c(c65)c78	-71	-2.0	0.4	9
C/C=C(\C)C(=O)O[C@H]1[C@H](OC(C)=O)[C@@]2(CO)C(CC1(C)C)C1=CCC3[C@@]4(C)CC[C@H](O[C@@H]5O[C@H](C(=O)O)[C@@H](O)[C@H](O[C@@H]6O[C@H](CO)[C@H](O)[C@H](O)[C@H]6O[C@@H]6O[C@@H](C)[C@H](O)[C@@H](O)[C@H]6O)[C@H]5O[C@@H]5O[C@H](CO)[C@@H](O)[C@H](O)[C@H]5O)C(C)(C)C4CC[C@@]3(C)[C@]1(C)C[C@H]2O (stereo partly specified)	111*	x	0.53	x
Cc1cc(NC(=O)N(C)C)nn1-c1ccccc1	-2	1.3	-0.56	-15
Cc1ccc(S(=O)(=O)N(C)C[C@@H]2Oc3c(NC(=O)c4ccncc4)cccc3C(=O)N([C@@H](C)CO)C[C@H]2C)cc1	3	x	-0.42	-7
CC(C)NC(=O)Nc1ccc2c(c1)C(=O)N([C@@H](C)CO)C[C@H](C)[C@H](CN(C)Cc1ccccc1)O2	x	2.5	-0.071	1
COc1ccc(S(=O)(=O)Nc2cccc3c2O[C@H](CN(C)C(=O)Nc2ccc(F)cc2)[C@@H](C)CN([C@H](C)CO)C3=O)cc1	x	-1.9	-0.48	23
C[C@@H]1CCCCO[C@H](CN(C)Cc2ccc(C(=O)Nc3ccccc3N)cc2)[C@@H](C)CN([C@H](C)CO)C(=O)c2cc(NS(=O)(=O)c3cn(C)cn3)ccc2O1	x	0.1	-0.81	2
COc1c2c(c(C)c3c1C(=O)OC3)OC1(C)CC(O)C3(O)C(C)(C)OC(=O)CCC3(C)C1C2 (stereo unspecified)	-23	-0.4	0.3	0
Cc1ccc(S(=O)(=O)N(C)C[C@H]2Oc3ccc(NC(=O)NC4CCCCC4)cc3CC(=O)N([C@@H](C)CO)C[C@@H]2C)cc1	-7	-0.4	0.24	-15
Cc1ccc(-n2c(C)nnc2SCC(=O)Nc2c(C)cccc2C)cc1C	x	-2.8	x	-16
COc1ccc(CN(C)C[C@@H]2Oc3ccc(NS(=O)(=O)c4ccc(OC)cc4)cc3C(=O)N([C@@H](C)CO)C[C@@H]2C)cc1	4	0.3	-0.37	1
C[C@@H]1CN([C@@H](C)CO)C(=O)c2cc(NC(=O)CCN3CCOCC3)ccc2O[C@H]1CN(C)CC1CCCCC1	-13	-0.4	-0.35	-3
CCOC(=O)N1CCN(CC(O)Cn2c(=O)c3c(ncn3C)n(C)c2=O)CC1 (stereo unspecified)	11	0.8	0.14	-1
COc1ccc(/C=C/C(=O)O[C@@H]2[C@@H](OC(=O)/C=C/c3ccc(OC)cc3)[C@H](C)O[C@@H](O[C@H]3[C@@H]4C=CO[C@@H](O[C@@H]5O[C@H](CO)[C@@H](O)[C@H](O)[C@H]5O)[C@@H]4[C@@]4(CO)O[C@@H]34)[C@@H]2OC(C)=O)cc1	u	-6.9	-0.2	45
O=C(CCN1C(=O)c2ccccc2C1=O)Nc1ccccc1-c1ccccc1	x	-0.5	x	-17
C[C@@H]1CN([C@H](C)CO)C(=O)c2cccc(NC(=O)Nc3ccc4c(c3)OCO4)c2O[C@H]1CN(C)S(=O)(=O)c1ccc(Cl)cc1	-13	-0.4	-0.52	-6
CNC[C@@H]1Oc2ccc(NC(=O)Nc3cccc4ccccc34)cc2C(=O)N([C@@H](C)CO)C[C@H]1C	-15	0.7	-0.022	-3
C[C@]12CCC(=O)C=C1CCC1C2[C@@H](O)C[C@@]2(C)C1CC[C@]2(O)C(=O)CO (stereo partly specified)	u	x	0.063	-17
C[C@H]1CN([C@@H](C)CO)C(=O)c2cccc(NS(=O)(=O)c3cn(C)cn3)c2O[C@@H]1CN(C)Cc1ccc2c(c1)OCO2	-68	x	0.16	-2
CC(=O)OCC1=C[C@@H](O)[C@@H]2C=CO[C@@H](OC3OC(CO)C(O)C(O)C3O)[C@H]12 (stereo partly specified)	-2	1.3	2.3	-17
SMILES	Hedgehog inh	PD-1 reversal	YB-1 expr inh	MITF inh
O=C(Nc1cccc([N+](=O)[O-])c1)C1CCCN(S(=O)(=O)c2ccc(F)cc2)C1 (stereo unspecified)	x	-0.6	x	7
COc1ccc(S(=O)(=O)Nc2cccc3c2O[C@@H](CN(C)C(=O)Nc2c(C)noc2C)[C@@H](C)CN([C@@H](C)CO)C3=O)cc1	-7	1.6	0.34	-1
NNC(=O)CS(=O)Cc1cccc(C(F)(F)F)c1 (stereo unspecified)	1	-0.2	-0.06	6
O=C(Oc1ccc(N(Cc2cccs2)C2=NS(=O)(=O)c3ccccc32)cc1)c1ccccc1	-39	0.6	-0.18	-1
COc1ccc(OC)c(C2C(C(=O)c3ccco3)C(=O)C(=O)N2CCN(C)C)c1 (stereo unspecified)	x	2.2	x	-6
CNC(=O)CN(c1cc(C)ccc1C)S(=O)(=O)c1ccccc1	x	0.2	x	1
C[C@@H]1CN([C@@H](C)CO)C(=O)c2cc(NC(=O)Cn3cnnn3)ccc2O[C@@H]1CN(C)C(=O)Nc1ccc2c(c1)OCO2	-1	0.2	-0.19	12
Cc1noc(C)c1S(=O)(=O)Nc1ccc2c(c1)C(=O)N([C@H](C)CO)C[C@@H](C)[C@H](CN(C)C)O2	x	-0.4	0.27	5
C[C@H](CO)N1C[C@H](C)[C@H](CN(C)Cc2ccc(C(=O)O)cc2)Oc2ccc(NS(=O)(=O)c3ccccc3)cc2CC1=O	-1	-1.7	-0.047	4
C[C@@H]1CN([C@@H](C)CO)C(=O)c2cccc(NS(=O)(=O)c3ccccc3)c2O[C@@H]1CN(C)C	-4	0.7	-0.45	4
CC(C)NC(=O)N(C)C[C@H]1Oc2ccc(NC(=O)Cc3ccccc3)cc2C(=O)N([C@H](C)CO)C[C@@H]1C	11	-0.5	-0.11	-6
CC1CCN(S(=O)(=O)c2ccc(Cl)c(C(=O)Nc3ccccc3[N+](=O)[O-])c2)CC1	x	0.8	x	2
COc1ccc(S(=O)(=O)N(C)C[C@@H]2Oc3c(cccc3N(C)C)C(=O)N([C@@H](C)CO)C[C@@H]2C)cc1	x	0.0	-0.086	-15
Cc1noc(C)c1S(=O)(=O)Nc1ccc2c(c1)CC(=O)N([C@@H](C)CO)C[C@@H](C)[C@@H](CN(C)S(=O)(=O)c1c(C)noc1C)O2	x	-0.1	0.35	-16
C[C@H]1CN([C@@H](C)CO)C(=O)c2cccc(NC(=O)Nc3ccc4c(c3)OCO4)c2O[C@H]1CN(C)Cc1ccc(-c2ccccc2)cc1	-7	-1.1	0.58	-22
C[C@@H]1CN([C@H](C)CO)C(=O)Cc2cc(NC(=O)C3CC3)ccc2O[C@H]1CN(C)S(C)(=O)=O	61	2.0	-0.18	-7
O=C(NCc1ccco1)c1ccc(NC(=O)c2ccccc2)cc1	x	0.5	x	2
CCOc1cc(C(=O)O)cc(Br)c1OCC(N)=O	x	0.4	x	-12
CCOc1nc(NC2CCCC2)nc(N2CCC(C)CC2)n1	3	-10	-0.2	11
CCc1cccc(C)c1NC(=O)CSc1nc2ccccc2c(=O)n1-c1cccc2ccccc12	x	0.0	x	21
C[C@@H]1CN([C@@H](C)CO)C(=O)c2cc(NC(=O)C3CC3)ccc2O[C@H]1CN(C)Cc1ccc(Oc2ccccc2)cc1	x	-0.9	0.0025	10
Cc1ccc(S(=O)(=O)N2c3ccccc3C(C)(c3ccccc3)CC2(C)C)cc1 (stereo unspecified)	57	-1.1	-0.28	41
COc1ccc(NC(=O)Nc2ccc3c(c2)C(=O)N([C@@H](C)CO)C[C@@H](C)[C@@H](CN(C)S(C)(=O)=O)O3)cc1	-18	2.0	0.12	12
COC(=O)c1cccc(N=C(N)N=C(N)N)c1	x	0.0	0.56	-23
C[C@@H]1CN([C@@H](C)CO)C(=O)c2cc(NC(=O)Nc3ccc(C(F)(F)F)cc3)ccc2O[C@@H]1CN(C)C(=O)Nc1cccc2ccccc12	25	-3.6	0.16	26
SMILES	Hedgehog inh	PD-1 reversal	YB-1 expr inh	MITF inh
C[C@H](CO)N1C[C@H](C)[C@@H](CN(C)C(=O)Nc2ccc3c(c2)OCO3)Oc2c(NC(=O)Nc3cccc4ccccc34)cccc2C1=O	-11	x	-0.43	0
Cc1noc(C)c1S(=O)(=O)Nc1ccc2c(c1)C(=O)N([C@H](C)CO)C[C@H](C)[C@H](CN(C)Cc1ccc(C(F)(F)F)cc1)OCCCC[C@@H](C)O2	46	-2.6	-0.041	2
C[C@H](CO)N1C[C@H](C)[C@@H](CN(C)C(=O)NC2CCCCC2)Oc2ccc(NS(C)(=O)=O)cc2C1=O	-2	0.5	0.23	-5
C[C@@H]1CN([C@H](C)CO)C(=O)c2cc(NC(=O)C3CC3)ccc2O[C@H]1CN(C)C(=O)Nc1cccc2ccccc12	6	x	-0.21	0
C[C@H]1CN([C@@H](C)CO)C(=O)Cc2cc(NC(=O)Nc3ccc4c(c3)OCO4)ccc2O[C@@H]1CN(C)Cc1ccc(C(=O)O)cc1	-6	1.7	-0.25	-11
C[C@@H]1CN([C@H](C)CO)C(=O)Cc2cc(NS(=O)(=O)c3ccc(F)cc3)ccc2O[C@H]1CN(C)C(=O)Nc1ccc2c(c1)OCO2	47	0.0	0.29	-5
COc1ccc([N+](=O)[O-])cc1NC(=O)CN(c1ccc(C)cc1C)S(C)(=O)=O	x	-0.5	x	10
CC(C)OC(=O)CSc1nnc(-c2ccccn2)n1-c1ccccc1	x	0.5	x	-9
C[C@@H]1CN([C@H](C)CO)C(=O)c2cc(NS(=O)(=O)c3ccc(F)cc3)ccc2O[C@H]1CN(C)S(=O)(=O)c1ccc(Cl)cc1	25	-0.9	0.29	-2
C[C@@H]1CN([C@@H](C)CO)C(=O)c2cc(NS(=O)(=O)c3cn(C)cn3)ccc2O[C@@H]1CN(C)Cc1ccc(Oc2ccccc2)cc1	x	-0.3	-0.07	-3
Cn1c(SCC(=O)Nc2cccc(Cl)c2)nnc1-c1ccc(OCC(F)(F)F)nc1	-14	1.1	0.29	-6
COc1ccc(NC(=O)N(C)C[C@@H]2Oc3c(NS(=O)(=O)c4ccc(Cl)cc4)cccc3C(=O)N([C@H](C)CO)C[C@H]2C)cc1	-14	x	0.11	-3
O=C(Nc1ccc(Cl)cc1)NC(C(=O)O)c1ccccc1 (stereo unspecified)	x	2.9	x	-11
Cc1noc(C)c1S(=O)(=O)Nc1ccc2c(c1)CC(=O)N([C@@H](C)CO)C[C@H](C)[C@@H](CN(C)C(=O)Nc1cccc3ccccc13)O2	4	x	0.0084	-16
C[C@@H]1CN([C@@H](C)CO)C(=O)c2cc(NS(=O)(=O)c3ccc(Cl)cc3)ccc2O[C@@H]1CN(C)Cc1ccc(-c2ccccc2)cc1	-6	-0.2	0.12	37
C[C@@H]1CN([C@H](C)CO)C(=O)c2cccc(NC(=O)Nc3ccc(C(F)(F)F)cc3)c2O[C@H]1CN(C)C(=O)Nc1ccc(F)cc1	-35	x	0.23	19
Cc1noc(C)c1NC(=O)N(C)C[C@H]1Oc2c(NC(=O)Nc3ccc(F)cc3)cccc2C(=O)N([C@H](C)CO)C[C@@H]1C	-35	3.0	0.088	-10

In a second layout: results already given
canonical_smiles | Hedgehog inh | PD-1 reversal | YB-1 expr inh | MITF inh
C[C@H](CO)N1C[C@H](C)[C@@H](CN(C)C(=O)NC2CCCCC2)Oc2ccc(NS(C)(=O)=O)cc2C1=O | -2 | 0.5 | 0.23 | -5
C[C@@H]1CN([C@H](C)CO)C(=O)c2cc(NC(=O)C3CC3)ccc2O[C@H]1CN(C)C(=O)Nc1cccc2ccccc12 | 6 | x | -0.21 | 0
C[C@H]1CN([C@@H](C)CO)C(=O)Cc2cc(NC(=O)Nc3ccc4c(c3)OCO4)ccc2O[C@@H]1CN(C)Cc1ccc(C(=O)O)cc1 | -6 | 1.7 | -0.25 | -11

Just MITF inh and Hedgehog inh (4 entries from above):
SMILES	MITF inh	Hedgehog inh
C[C@H]1CN([C@@H](C)CO)C(=O)Cc2cc(NC(=O)Nc3ccc4c(c3)OCO4)ccc2O[C@@H]1CN(C)Cc1ccc(C(=O)O)cc1	-11	-6
C[C@@H]1CN([C@H](C)CO)C(=O)Cc2cc(NS(=O)(=O)c3ccc(F)cc3)ccc2O[C@H]1CN(C)C(=O)Nc1ccc2c(c1)OCO2	-5	47
COc1ccc([N+](=O)[O-])cc1NC(=O)CN(c1ccc(C)cc1C)S(C)(=O)=O	10	x
CC(C)OC(=O)CSc1nnc(-c2ccccn2)n1-c1ccccc1	-9	x

This is a subset (hit frequency here may not be typical).
